Arbovirus anti – arbovirus infection inhibition | arbovirus infection cell-based antiviral screen | inhibition, % at 10 µM | actives 0.37% (n = 200,000);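 active means inhibition from about 30%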;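 further: bluetongue infection of BSR cells; cell survival read as ATP light after 72 h; 0% = infected wells without compound and 100% = uninfected wells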
YopH PTP inh – blocks Yersinia enterocolitica YopH tyrosine phosphatase. actives 0.16% (n = 140,000). inhibition, %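 (about 10 µM by stock and volumes)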. fluorescence Ex485/Em525;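 active means inhibition of 50% or more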;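 further: controls were vehicle for no effect and minimum signal wells for full effect; inactives centre near -20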
RecA splice inh – inhibitors of M. tuberculosis RecA intein splicing. cell-free RecA intein splicing, fluorescence. inhibition, %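 (about 9 µM by stock and volumes)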. AID 2221. actives 0.75% (n = 290,000). P9WHJ3; in the data active means inhibition above about 30%; inconclusive means no clear call, values can overlap the other calls;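 further: 0% = vehicle wells and 100% = reference inhibitor control wells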
Target sequence (P9WHJ3 whole entry, looked up, canonical isoform): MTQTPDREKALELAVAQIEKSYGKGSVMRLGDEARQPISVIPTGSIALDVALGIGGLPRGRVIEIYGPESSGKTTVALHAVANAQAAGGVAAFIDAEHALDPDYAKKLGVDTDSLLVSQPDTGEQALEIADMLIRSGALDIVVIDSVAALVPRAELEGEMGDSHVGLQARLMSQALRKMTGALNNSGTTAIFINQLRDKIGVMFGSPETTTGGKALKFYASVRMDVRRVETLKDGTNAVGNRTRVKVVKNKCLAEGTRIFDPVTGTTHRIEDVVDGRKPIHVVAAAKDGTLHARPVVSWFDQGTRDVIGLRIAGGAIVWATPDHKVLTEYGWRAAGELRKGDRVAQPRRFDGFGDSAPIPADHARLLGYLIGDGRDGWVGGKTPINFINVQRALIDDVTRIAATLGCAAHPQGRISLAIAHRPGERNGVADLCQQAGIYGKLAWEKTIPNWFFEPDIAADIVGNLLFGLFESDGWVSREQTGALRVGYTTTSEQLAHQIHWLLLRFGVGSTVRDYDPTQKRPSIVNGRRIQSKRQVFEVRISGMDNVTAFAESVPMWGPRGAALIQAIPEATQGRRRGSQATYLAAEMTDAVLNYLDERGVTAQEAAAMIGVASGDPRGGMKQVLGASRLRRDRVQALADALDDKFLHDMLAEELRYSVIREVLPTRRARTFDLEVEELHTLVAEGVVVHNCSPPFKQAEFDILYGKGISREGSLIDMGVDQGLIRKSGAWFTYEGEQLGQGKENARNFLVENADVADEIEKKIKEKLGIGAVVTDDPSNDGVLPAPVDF
Mtb growth – M. tuberculosis H37Rv growth inhibitors, H37Rv strain (AID 1626). actives 0.95% (n = 220,000). M. tuberculosis H37Rv growth inhibition; higher % means a stronger effect. one-dose inhibition, % at 10 µM; IC50 in µM for titrated hits;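 active means confirmed in a dose series; inconclusive means inhibition above 80% but not taken into the dose series; inactive means below 80% or under 30% at every dose of the series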;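 further: bacteria incubated seven days before Alamar blue readout; 0% = bacteria only wells and 100% = bacteria with antibiotic wells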
Mtb bLac sens – beta-lactam sensitization of Mtb H37Rv; M. tuberculosis H37Rv growth with meropenem, percent inhibition; hits of this screen are not shown here; inhibition, % at 25 µM; actives 0.27% (n = 330,000);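 active means about 74% or more and at least 40 points above the plate without the antibiotic, then above 30% in a dose series; inconclusive means first-round hits that could not be retested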;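 further: growth measured after seven days incubation then overnight dye step; 0% = bacteria only wells and 100% = bacteria with antibiotic; twin plates without the antibiotic show which effects depend on it; some results filed as inactive read as strong as hits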
Arbovirus anti repeat – recorded beside Arbovirus anti, whose call it bears; inhibition, %; measured here: 10K subset replicate screen; many hits read low in the repeat;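 first of two repeat runs on a subset; 0% = infected and 100% = uninfected wells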
* = called active by the depositor; ? = inconclusive; . = no result given. A portion of the library, so the mix of outcomes need not match the whole.

SMILES	Arbovirus anti	YopH PTP inh	RecA splice inh	Mtb growth	Mtb bLac sens	others
O=C(O)CSc1cc(C(=O)c2ccccc2O)cn2c(=O)c3c(-c4ccccc4)csc3nc12	70*	.	0.7	-2%	-8
Cc1ccc(NC(=O)c2ccc3nc[nH]c3c2)c(O)c1	5	.	-0.5	4%	-15
CC(C)Cn1c(=O)c(C(=O)Nc2ccccc2S(N)(=O)=O)c(O)c2ccccc21	-21	-17	0.7	-3%	10
O=C1c2ccccc2CN1CCNS(=O)(=O)c1ccc(Cl)cc1	2	-83	-2.9	0%	2
OCCN1CCN(c2nnc(-c3ccccc3)c3ccccc23)CC1	.	.	0.9	.	9
Cc1ccc(C(=O)NC2c3ccccc3-c3ccccc32)cc1	-10	-26	6.8	-3%	7
Cc1ccccc1CN1CCC(CNC(=O)Nc2ccc(F)cc2F)CC1	.	.	0.8	.	?
NC(=O)c1cc(C(=O)Cc2ccc(Cl)cc2)c[nH]1	.	.	1.6	.	3
CCOC(=O)Nc1ccc(S(=O)(=O)NCc2ccccc2)cc1	1	-25	-0.7	-10%	7
O=C(O)CC(CCc1ccccc1)OC1OC(CO)C(O)C(O)C1O (stereo not drawn)	.	.	.	-3%	-2
CN(C)c1cc(O)c(C(=S)Nc2ccccc2)c(N(C)C)c1	-1	11	-0.2	.	?
CC(CN(C)Cc1ccccc1)OC(=O)c1ccc2c(c1)OCCO2 (stereo not drawn)	2	-14	3.2	-7%	10
O=C(Nc1nc(-c2ccncc2)cs1)c1ccc(S(=O)(=O)N2CCOCC2)cc1	-1	-20	-4.8	.	-7
Cc1cc(C)c2c(n1)SCC(=O)N2CC(=O)Nc1cc(F)ccc1F	.	.	-2.5	.	0
CC(OC(=O)c1ccc(NC(=O)CC#N)cc1)C(=O)Nc1ccc2c(c1)OCCO2 (stereo not drawn)	.	.	-3.8	.	-3
Cc1ccc2nc(Cl)c(/C=N/NC(=O)CN3CCOCC3)cc2c1	.	.	0.1	.	-2
O=[N+]([O-])c1cccc(N/N=C/c2cc([N+](=O)[O-])ccc2O)c1	-28	.	3.4	?	-4
CN(C1CCS(=O)(=O)C1)S(=O)(=O)c1ccc(N2CCCC2=O)cc1 (stereo not drawn)	-1	-23	-0.6	-4%	4
Cc1csc(NC(=O)CCc2c(C)nc3cc(-c4cccc(F)c4)nn3c2C)n1	-3	-37	-1.0	.	-6
COCCn1c(=NC(=O)CSC(C)=O)sc2cc(OC)ccc21	-10	-11	12	9%	-5	Arbovirus anti repeat=-6
O=C(NC1CCCCCCC1)c1ccco1	0	-16	-0.5	-5%	20
O=C(CN1C2=NCCN2c2ccccc21)N1CCOCC1	1	-13	-1.2	3%	-10
CN(C)c1ccc(Nc2ncnc3ccc(Br)cc23)cc1	.	.	-5.5	.	52
Cc1ccccc1OCc1ccc(C(=O)N2CCOCC2)o1	.	.	-0.6	.	-4
COc1cc(C(=S)N2CCCC2)cc(OC)c1O	3	-3	-6.3	2%	0
CCc1nnc(NC(=O)c2ccncc2)s1	9	-31	-1.6	-8%	-3
COc1ccc(OC)c(NC(=O)CCn2c(=S)[nH]c3ccccc3c2=O)c1	.	.	-0.8	.	4
COc1ccc(Sc2nc3ccccc3n3c(C(F)(F)F)nnc23)cc1	1	-4	0.9	0%	6
CCOC(=O)c1cc2cc(C)ccc2[nH]1	6	9	-3.2	0%	2
COc1cc(-c2nnc(NC(=O)CS(=O)(=O)c3ccc(F)cc3)o2)cc(OC)c1OC	.	.	-1.4	.	5

The final five entries of the part before lead into the next.
SMILES	Arbovirus anti	YopH PTP inh	RecA splice inh	Mtb growth	Mtb bLac sens	others
CCc1nnc(NC(=O)c2ccncc2)s1	9	-31	-1.6	-8%	-3
COc1ccc(OC)c(NC(=O)CCn2c(=S)[nH]c3ccccc3c2=O)c1	.	.	-0.8	.	4
COc1ccc(Sc2nc3ccccc3n3c(C(F)(F)F)nnc23)cc1	1	-4	0.9	0%	6
CCOC(=O)c1cc2cc(C)ccc2[nH]1	6	9	-3.2	0%	2
COc1cc(-c2nnc(NC(=O)CS(=O)(=O)c3ccc(F)cc3)o2)cc(OC)c1OC	.	.	-1.4	.	5
CC1CC(C)CN(CCCn2c(=S)[nH]c3ccccc3c2=O)C1 (stereo not drawn)	7	1	-0.1	4%	-10
O=C(CCc1nnc(CCCCc2ccccc2)o1)NCc1cc(F)ccc1F	-4	.	.	4%	1
Cc1cc(C)c(S(=O)(=O)O)c(C)n1	3	-45	0.7	-9%	1
COc1ccc(CCNC(=O)COC(=O)CCC(=O)c2ccc(F)cc2)cc1OC	0	.	.	-1%	-5
CC(=O)Nc1cc([N+](=O)[O-])ccc1N1CCOCC1	0	.	.	13%	-4
CC1Cc2ccccc2N1Cc1nc2cc(Cl)ccc2c(=O)[nH]1 (stereo not drawn)	5	-28	1.4	9%	0
OCC1CCCCN1CCNCc1cn[nH]c1-c1cccc2ccccc12 (stereo not drawn)	.	.	-3.7	-5%	-13
CCOC(=O)c1c(NC(=O)CCN2C(=O)c3ccccc3C2=O)sc(C(=O)OC(C)C)c1C	-7	-20	-1.4	0%	6
O=c1[nH][nH]c(=O)c2c(NS(=O)(=O)c3ccccc3)cccc12	-8	.	5.5	8%	-2
CCc1ccccc1NC(=O)CCS(=O)(=O)c1ccc(C)cc1	.	.	1.0	.	-2
O=C(NC(=S)Nc1ccc2oc(=O)ccc2c1)c1ccc(-c2cccc(Cl)c2Cl)o1	-18	-9	1.4	11%	-4
Cc1cccc(CC(C)NC(=O)c2cc(COc3ccc(C)c(C)c3)on2)n1 (stereo not drawn)	.	.	-4.2	.	?
Oc1c(I)cc(I)c2cccnc12	-37	-52	4.8	76%	87
CCn1nc(C)c(C(=O)Nc2cc(Oc3ccc(Cl)cc3)cc([N+](=O)[O-])c2)c1C	-34	-2	6.3	8%	?
O=C(Cn1nnc(-c2ccccc2Cl)n1)N/N=C/c1ccc(-c2cccc(Cl)c2)o1	-14	1	-6.2	12%	2
CCC(N)Cc1c[nH]c2ccccc12 (stereo not drawn)	.	.	1.9	-8%	.
CC(C)CNC(=O)c1ccc(Cl)c(NC(=O)COc2ccccc2)c1	1	.	0.5	5%	-1
O=C(CCl)N(c1ccccc1)c1ccccc1	-31	.	80*	5.7µM*	.
CCCCCCCNC(=O)C1(CC2CC(c3cccc(Br)c3)=NO2)CCN(C(=O)c2cc(OCC)c(OCC)c(OCC)c2)CC1 (stereo not drawn)	.	.	-2.5	.	-7
CCOC(=O)N1CCN(c2cc(=O)n(-c3ccccc3C)c(=O)[nH]2)CC1	1	.	-2.0	-2%	4
CCOC(=O)C1=C(C)Nc2nnnn2C1c1ccccc1Cl (stereo not drawn)	7	1	.	10%	-2
Cn1ncc2c(Nc3cccc([N+](=O)[O-])c3)ncnc21	.	.	-5.2	.	5
O=C(NN1C(=O)C2C(c3ccccc3)C=CC(c3ccccc3)C2C1=O)c1cccc(Br)c1 (stereo not drawn)	-2	-12	8.1	1%	-4
O=c1[nH]cnc2sc3c(c12)CCC3	.	.	-0.3	-7%	-8
COc1ccc(NC(=O)COC(=O)C(CC(C)C)N2C(=O)C3CC=CCC3C2=O)cc1Cl (stereo not drawn)	-5	-26	4.0	6%	-7
CC1CCN(Cc2c(C(=O)N/N=C/c3ccc(C(C)(C)C)cc3)nnn2-c2nonc2N)CC1	.	.	-1.4	.	95
CCN(C(=S)NC(=O)Cc1ccc(OC)cc1)c1ccccc1	.	.	1.9	.	-2
CC(Oc1ccc(F)cc1F)C(=O)NNC(=S)NCC1CCCO1 (stereo not drawn)	.	.	-1.3	.	-4
Cc1ccc(/C=N/n2c(-c3ccccc3)n[nH]c2=S)cc1	.	.	0.1	.	-1
CCn1cnc2c1c(=O)n(CC(=O)OC(C)C(N)=O)c(=O)n2Cc1ccccc1 (stereo not drawn)	.	.	1.1	.	14

Six structures already listed, sorted by formula weight, descending.
SMILES	Arbovirus anti	YopH PTP inh	RecA splice inh	Mtb growth	Mtb bLac sens	others
COc1ccc(NC(=O)COC(=O)C(CC(C)C)N2C(=O)C3CC=CCC3C2=O)cc1Cl (stereo not drawn)	-5	-26	4.0	6%	-7
CC(C)CNC(=O)c1ccc(Cl)c(NC(=O)COc2ccccc2)c1	1	.	0.5	5%	-1
CCOC(=O)N1CCN(c2cc(=O)n(-c3ccccc3C)c(=O)[nH]2)CC1	1	.	-2.0	-2%	4
CCN(C(=S)NC(=O)Cc1ccc(OC)cc1)c1ccccc1	.	.	1.9	.	-2
Cn1ncc2c(Nc3cccc([N+](=O)[O-])c3)ncnc21	.	.	-5.2	.	5
CCC(N)Cc1c[nH]c2ccccc12 (stereo not drawn)	.	.	1.9	-8%	.

(further entries)
SMILES	Arbovirus anti	YopH PTP inh	RecA splice inh	Mtb growth	Mtb bLac sens	others
O=C1c2ccccc2C(O)(Cc2ccccc2)N1CCCN1CCOCC1 (stereo not drawn)	4	-28	-0.1	2%	7
CCCCNC(=O)CCNS(=O)(=O)c1ccc(C)cc1	-2	2	-0.1	0%	9
CCN(Cc1ccccc1)S(=O)(=O)c1cc(C(=O)NC2CCCCCC2)ccc1OC	-14	3	6.9	4%	-1
S=C(Nc1ccccc1)Nc1ccc(Br)cn1	1	.	6.5	4%	5
CCC(C)(C)n1nnnc1C(c1cc2cc(OC)c(OC)cc2[nH]c1=O)N1CCc2ccccc21 (stereo not drawn)	-27	-1	4.2	72%	97
Cc1cccc(Nc2c3c(nc4ccccc24)CCC3)c1	.	.	6.0	11%	10
CCOC(=O)C/C(C)=N\Nc1nc(-c2ccccc2)cs1	17	.	0.1	1%	2
Cc1ccc(S(=O)(=O)NC(=O)c2ccc(F)cc2)c(C)c1	.	.	-1.5	.	-4
CN(C)c1ccc(C(=O)Nc2ccc(O)c3c(=O)cc(-c4ccccc4Cl)oc23)cc1	.	.	3.0	-3%	-12
OCCC1CN(Cc2ccc(-n3cccn3)cc2)CCN1Cc1ccccc1 (stereo not drawn)	0	.	-1.3	1%	3
CCOC(=O)Cn1c(=O)c2c(nc3n2CCCN3CCc2ccccc2)n(C)c1=O	.	.	1.7	.	-5
CC(=O)Nc1ccc(NC(=O)c2ccccc2N(C)S(=O)(=O)c2ccccc2)cc1	.	.	-1.0	.	-5
CC(=O)NC(=S)NNC(=O)c1ccc(Br)cc1	-16	.	-4.1	?	64
O=C(O)CC(NS(=O)(=O)c1c(F)cc(F)cc1Br)c1ccccc1Cl (stereo not drawn)	0	.	3.4	-4%	-3
COc1cccc(-c2cc(=O)c3cc(NC(=O)c4ccc(N(C)C)cc4)ccc3[nH]2)c1	-21	2	-0.2	-5%	1
O=C(NC1C(=O)NNC1c1ccc(Cl)cc1)c1ccc(F)cc1 (stereo not drawn)	-1	.	70*	-4%	-10
CCCSc1nnc(NC(=O)Nc2ccccc2)s1	14	-17	1.4	-8%	7
COc1ccc(CN(C)c2nc(-c3cccnc3)nc3ccccc23)cc1OC	7	.	-3.1	6%	-4
CC(C)CC(=O)N1CCC(O)(CS(=O)(=O)Cc2ccc(Cl)cc2)CC1	3	-10	1.8	-4%	2
NC1C=CC=C(C(=O)O)C1 (stereo not drawn)	.	.	-3.4	-13%	1
Cc1ccc(NC(=O)CN(C)CC(=O)Nc2ccccc2Oc2ccccc2)cc1	8	.	4.0	-7%	13
O=C(NCc1cccs1)c1cc(-c2ccccc2)nn1CC1CC(c2cccnc2)=NO1 (stereo not drawn)	.	.	-0.4	-2%	-3
COc1ccc(NC(=O)c2ccco2)cc1NC(=O)c1ccc(Br)o1	-3	11	0.5	5%	27
COc1ccc(OC)c(C(=O)COC(=O)CNC(=O)c2ccccc2)c1	0	-10	-0.8	2%	4
CCc1c(C)[nH]n(-c2nc(-c3ccccc3)cs2)c1=O	-7	.	2.0	5%	-2
NC(=O)C1CCCN(S(=O)(=O)c2ccccc2)C1 (stereo not drawn)	6	-30	-3.6	-5%	4
CCCCN(C)C(=O)c1nc2ccccn2c1CNCCCn1ncc2ccccc21	.	.	0.1	-2%	-4
O=C(O)c1cccc2c1C(=O)N(Cc1ccccc1)C2	.	.	-1.1	.	-5

Bioassay records as filed in PubChem BioAssay.
